# High-throughput results from PubChem BioAssay.
# WNV protease inh = WNV NS2B-NS3 proteinase inhibition; P06935; WNV NS2B-NS3 protease, fluorogenic substrate Ex360/Em465; stronger effect = lower value; z-score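 (tested at a level between 10 and 100 µM)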; 65,000 compounds, 0.18% hits; AID 577;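 active = z-score at -3 or under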;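 also: score is relative to mean and spread of the compound wells of a plate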
# Target sequence (P06935 1371-1501 limits assumed): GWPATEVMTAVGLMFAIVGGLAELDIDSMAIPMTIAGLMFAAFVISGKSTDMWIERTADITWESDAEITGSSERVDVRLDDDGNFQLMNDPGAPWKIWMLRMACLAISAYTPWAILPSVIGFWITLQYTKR
# Target sequence (P06935 1502-1679 limits assumed): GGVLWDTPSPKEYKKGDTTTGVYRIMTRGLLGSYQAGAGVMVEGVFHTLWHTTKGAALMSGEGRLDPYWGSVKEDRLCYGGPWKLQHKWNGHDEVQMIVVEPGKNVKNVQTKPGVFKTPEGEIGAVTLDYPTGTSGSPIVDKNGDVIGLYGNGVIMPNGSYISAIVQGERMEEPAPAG
# * hit, by the source's call.
SMILES,WNV protease inh
COC(=O)CN1C(=O)C2(C(C#N)=C(N)Oc3n[nH]c(-c4cccs4)c32)c2ccccc21 (configuration not stated),-1.1
CC(=O)N(CC1CCCO1)C1(C(=O)NC2CCCC2)CCCCC1 (configuration not stated),1.04
COC(=O)c1cc(OC)c(OC)cc1NC(=O)c1c(C)noc1C,-0.38
CCN1CCN(C(=O)CN(c2ccc(C)cc2)S(C)(=O)=O)CC1,1.26
CC1CCCN(c2ncnc3c2cnn3-c2ccccc2)C1 (configuration not stated),-0.9
O=C(NCc1cccs1)c1cc2c(s1)-c1ccccc1OC2,0.53
CC(=O)N1CCc2cc(S(=O)(=O)N3CCOCC3)ccc21,-0.69
COc1ccc(CCNC(=O)CSc2nnc(CNC(=O)c3ccco3)o2)cc1OC,-0.84
O=c1c(O)c(-c2ccc3c(c2)OCO3)oc2ccccc12,0.45
CCC1Oc2ccc(C)cc2N(CC(=O)NCCN2CCCCCC2)C1=O (configuration not stated),-0.47
CC1(C)CC(=O)c2cc(C(=O)N3CCN(CCO)CC3)c(=O)n(-c3ccc(Cl)cc3)c2C1,0.15
CC(=O)c1cccc(NC(=O)Nc2ccc3c(c2)N(C)C(=O)CS3)c1,-0.33
CN(C)CCCNCCCNC(=O)c1ccncc1,0.05
COc1ccc(C(=O)N2CCN(c3ccc(C)cc3C)CC2)cc1OC,-1.31
CS(=O)(=O)N(CC(=O)N1CCCC1)c1ccc(Cl)c(Cl)c1,0.16
CC(C(=O)O)C1SC(=O)NC1=O (configuration not stated),-0.06
CC(C)(C)OC(=O)N1CCCC1C(=O)O (configuration not stated),-0.52
O=C(NC1CCCCC1)c1cccc(S(=O)(=O)N2CCOCC2)c1,-0.48
COc1ccc(Nc2ccc3c(c2)=NC2(CCCCC2)[N+]=3[O-])cc1,1.26
Cc1cc(O)cc(=O)n1Cc1ccco1,-0.43
CC1CC(C)CN(Cc2nc3c(c(=O)n(C)c(=O)n3C)n2Cc2ccccc2Cl)C1 (configuration not stated),-0.4
O=C(NCc1ccco1)N1c2ccccc2Sc2ccccc21,1.26
COc1ccc(NS(=O)(=O)c2ccc(SC)cc2)cc1,-0.21
COc1ccc(C(=O)n2nc(C)cc2C)cc1Br,0.22
CCn1c(CNC(=O)C23CC4CC(CC(C4)C2)C3)nnc1SCC(=O)Nc1nnc(C)s1,1.24
CCC(=O)N1CCc2cc(S(=O)(=O)N3CCN(C(=O)c4ccco4)CC3)ccc21,0.74
CCOc1ccc(C(C)=O)cc1N1C(=O)C2C3C=CC(O3)C2C1=O (configuration not stated),-0.76
Cc1c(C(=O)O)[nH]c2c1C(=O)CC(c1ccccc1)C2 (configuration not stated),0.04
Cc1cccc(N2CCN(S(=O)(=O)c3ccc4c(c3)c(=O)n(C)c(=O)n4C)CC2C)c1 (configuration not stated),0.94
O=C(c1ccc(=O)[nH]c1)N(Cc1ccco1)C1(C(=O)NC2CCCC2)CCCCC1,-0.22
COCCCNC(=O)c1cc2c(s1)CS(=O)(=O)C2,-0.24
COC(=O)c1ccsc1NC(=O)c1ccc(Cl)s1,-0.27
O=C(NCSc1ccncn1)c1ccccc1,-0.54
O=C(COc1ccc(F)cc1Br)NCc1ccccn1,0.03
O=C(c1ccco1)N1CCN(Cc2ccccc2C(F)(F)F)CC1,-0.44
C#CCSc1nsc(SCC#C)c1C#N,0.59
CC(=O)NC1N=C(C)N(c2ccccc2)C1=O (configuration not stated),1.7
CCOC(=O)N1CCC(N2CCN(S(=O)(=O)CC)CC2)CC1,-0.08
CS(=O)(=O)N(CC(=O)NCC1CCCO1)c1ccc(Cl)c(Cl)c1 (configuration not stated),-0.29
COC(=O)CSc1nnc(SCc2ccc(OC)cc2)s1,-1.46
CCOC(=O)C1CCCN(C(=O)c2ccc(CS(=O)(=O)c3ccc(Br)cc3)o2)C1 (configuration not stated),-0.97
O=C1NCC2=C1C(c1ccc(Br)cc1)Nc1ccccc1N2 (configuration not stated),0.81
COc1ccc(OC)c(S(=O)(=O)NCc2cn3ccsc3n2)c1,0.28
Cc1cc(C)cc(NC(=O)CSc2nnc(CNC(=O)c3cccs3)o2)c1,1.02
Cc1ccc(C)c(N2CCN(C(=O)C3CCCN(S(=O)(=O)c4c(C)[nH]c(=O)[nH]c4=O)C3)CC2)c1 (configuration not stated),0.49
COc1cc(C(=O)NCc2nnc(SCC(=O)Nc3cc(C)cc(C)c3)o2)cc(OC)c1OC,0.67
CCOC(=O)C1CCN(C(c2cc3c(C)ccc(C)c3[nH]c2=O)c2nnnn2C2CCCCC2)CC1 (configuration not stated),0.62
Cc1nc2c(o1)CCc1ccccc1C2O (configuration not stated),1.05
CCCCCCOC(=O)Sc1nc2ccccc2o1,-0.00498
O=C(C1=C(O)C(=O)N(c2ncccn2)C1c1cccc(Cl)c1)c1ccco1 (configuration not stated),-0.7
O=c1cc(-c2ccccc2)nc2n1Cc1ccccc1-2,-0.53
CCc1nnc(NCn2nc(C)cc2C)s1,-1.58
CCc1nnc(NC(=O)c2ccc(NS(=O)(=O)c3ccccc3)cc2)s1,0.35
CCCCS(=O)(=O)NC1=NCN(CC)CN1,-1.61
O=C(CN1CCN(Cc2ccccc2Cl)C1=O)NC1CCCCCCC1,-1.53
CCOC(=O)N1CCN(C(=O)c2cnn3ccccc23)CC1,-0.87
CCOC(=O)c1c(C2COc3ccccc3O2)csc1N (configuration not stated),-1.03
COc1ccc2c(C)c(C(=O)NCC(C)O)oc2c1OC (configuration not stated),-1.13
Cc1ccc(-c2nc(C#N)c(NCc3cccc4c3OCO4)o2)cc1,1.29
COc1ccc(C(=O)c2c[nH]c3ccccc23)cc1,0.36

# Continued.
SMILES,WNV protease inh
O=C1c2ccccc2C(=O)N1CCc1nn[nH]n1,0.19
O=C(COC(=O)C1CCCN1S(=O)(=O)c1ccc(Cl)cc1)Nc1ccc2c(c1)OCO2 (configuration not stated),1.89
O=C(CSc1nc(-c2ccco2)cc(C(F)(F)F)n1)Nc1ccc(C(=O)N2CCCCC2)cc1,-1
COc1cccc(-c2cc(C(=O)NCc3ccco3)no2)c1,0.72
COc1cc2c(cc1OC)CN(C(=O)CSc1nnc3scc(-c4ccccc4)n13)CC2,-0.32
CCn1c(CNC(=O)c2ccc(OC)cc2)nnc1SC,0.51
O=C(O)c1ccccc1C(=O)OCc1ccccc1,0.49
O=C(O)CN(c1ccccc1F)S(=O)(=O)c1ccccc1,-0.39
COC(=O)Cn1c(CN2CCOCC2)nc2c1c(=O)n(C)c(=O)n2C,-0.32
Cc1nc2nc(-c3ccco3)[nH]n2c(=O)c1Cc1ccccc1,0.24
O=C(Nc1cccc(NC(=O)c2ccc(Br)o2)n1)c1ccc(Br)o1,-0.42
Cc1cc(NC(=O)CSc2nc3c(c(=O)n2Cc2ccccc2)SC(C)C3)no1 (configuration not stated),0.52
CC(=O)c1cccc(NC(=O)c2ccc(S(=O)(=O)N3CCCCC3)cc2)c1,-0.67
COc1ccc(CCNC(=O)C2CC(=O)N(c3ccc(F)cc3)C2)cc1OC (configuration not stated),0.58
O=C1c2ccccc2NC2(CCCCC2)N1c1ccc(O)cc1,0.74
CCOC(=O)Cc1csc(NC(=O)COc2ccccc2OC)n1,-0.8
COc1cc2c(=O)n(Cc3ccco3)c(=O)n(CC(=O)c3cccc(Br)c3)c2cc1OC,-1.25
O=C(CP(=O)(c1ccccc1)c1ccccc1)Nn1cnnc1,-0.84
O=C1Cc2ccccc2C(=O)N1CCc1ccccc1,-0.78
CC1(C)CC2(CC(C)(C)N1)OC(=O)N1CCc3ccccc3C12C (configuration not stated),0.16
Cc1c(NC(=O)OCCSc2nc(N(C)C)nc(N(C)C)n2)sc(=S)n1C,-0.63
CC(=O)N1CCc2cc(S(=O)(=O)Nc3cccc(C(F)(F)F)c3)ccc21,-0.81
COc1ccc(C2C(C#N)=C(N)Oc3n[nH]c(C)c32)cc1CN1CCN(c2ccc(F)cc2)CC1 (configuration not stated),-0.92
O=C(CSc1ccc(Cl)cc1)NC1CCCC1,0.42
CCN(C(=O)CCc1nc(-c2ccc(OC)cc2)no1)c1cc(OC)ccc1OC,-0.71
CCC(Sc1nc2ccccc2s1)C(=O)Nc1nnc(C)s1 (configuration not stated),-1.21
O=C(Nc1ccc(F)cc1)c1cc(S(=O)(=O)N2CCCCC2)cs1,0.82
Cc1nn(Cc2ccccc2)c2sc(C(=O)N3CCN(Cc4ccc5c(c4)OCO5)CC3)cc12,-0.45
CCn1c2ccccc2c2cc(NC(=O)C3CCN(S(=O)(=O)c4cccs4)CC3)ccc21,-1.32
CC1CN(C(=O)c2ccncc2)CC(C)O1 (configuration not stated),-0.82
Cn1ccnc1SC(=O)N1c2ccccc2Sc2ccccc21,0.83
COc1nnc(OC)c2ccccc12,0.54
O=C(NCC(c1cccnc1)N1CCN(c2ccccc2F)CC1)c1cccc(Cl)c1 (configuration not stated),1.24
COc1ccc(-c2cc(C(=O)Nc3c(C)nn(Cc4ccc(Cl)cc4)c3C)no2)cc1,-1.01
CC(C)c1ccc(NC(=O)NC2CCCCC2)cc1,-0.24
O=C1C(C2=C(O)c3ccccc3C2=O)=Nc2ccccc21,0.59
O=C1c2ccccc2C(=O)N1CCCC(=O)N1CCc2ccccc21,0.03
COc1cc2c(=O)n(CC3CCCO3)c(=O)n(CC(=O)Nc3cccc(Cl)c3)c2cc1OC (configuration not stated),-1.12
Cc1ccc(-c2nc(-c3ccccc3)no2)c(Cl)c1,-0.47
Cc1noc(C)c1S(=O)(=O)N1CCC(C(=O)N(C)Cc2ccccc2)CC1,-1.19
COc1ccc(C(=O)c2ccc(N(C)C)cc2)c(OC)c1,-1.02
CC(=O)Nc1ccc(S(=O)(=O)N2CCSC2C(=O)O)cc1 (configuration not stated),-0.36
Cc1ccc2nc(NC(=O)CN(C)S(=O)(=O)c3ccc(Br)s3)sc2c1,0.58
COc1ccc(C(=O)Nc2ccncc2)cc1OC,-0.64
CN(C)c1ccc(C2NCCS2)cc1 (configuration not stated),-1.31
CCCN1CCN(C(=O)Cn2c(=O)oc3cc(S(=O)(=O)NCc4ccccc4)ccc32)CC1,-0.09
CC(C)(C)N(Cc1cc2ccccc2[nH]c1=O)C(=O)C1CCCCC1,1.45
CCOC(=O)N1CCC(NS(=O)(=O)c2ccc3c(c2)CCN3C(C)=O)CC1,0.44
O=C1CC(N2CCOCC2)C(=O)N1c1cccc(Cl)c1 (configuration not stated),-1.93
Cc1cc(C(=O)Nc2ccc(S(=O)(=O)Nc3onc(C)c3C)cc2)c(C)o1,-1.15
O=C(COc1ccc(Cl)cc1)NCc1nnc(SCC(=O)NC2CCCC2)o1,1.12
O=C(C1CCCN(S(=O)(=O)c2ccccc2)C1)N1CCCCCC1 (configuration not stated),-1.57
Cc1[nH]c(=O)[nH]c(=O)c1S(=O)(=O)N1CCCC(C(=O)NCCc2ccc(Cl)cc2)C1 (configuration not stated),-0.49
CC(C)(C)c1ccccc1OCCN1CCCC1,-0.39
COCCn1c(=O)[nH]c2cc(C(=O)N3CCN(c4ccccc4OC)CC3)ccc2c1=O,0.34
COc1ccc(NC(=O)CSc2ncn(-c3ccccc3)n2)cc1Cl,-0.04
c1nc(N2CCCCC2)c2[nH]cnc2n1,0.00493
COc1cc(C2NC(=O)NC(O)(C(F)(F)F)C2C(=O)c2cccs2)ccc1O (configuration not stated),-0.74
O=C(NCCCN1CCN(c2ccccc2)CC1)Nc1ccccc1C(F)(F)F,1.48
O=C(Oc1ccc(-c2nc(-c3ccccn3)no2)cc1)c1ccccc1,-0.34

# 3 structures from above, ordered by count of non-hydrogen atoms, low to high:
SMILES,WNV protease inh
O=C(C1CCCN(S(=O)(=O)c2ccccc2)C1)N1CCCCCC1 (configuration not stated),-1.57
COc1ccc(NC(=O)CSc2ncn(-c3ccccc3)n2)cc1Cl,-0.04
COCCn1c(=O)[nH]c2cc(C(=O)N3CCN(c4ccccc4OC)CC3)ccc2c1=O,0.34

# Next results follow.
SMILES,WNV protease inh
CCOC(=O)Cn1c(=NC(=O)CSC(C)=O)sc2cc(OC)ccc21,-1.1
Cc1nn(-c2ccccc2)c(C)c1NC(=O)c1cccs1,0.04
COc1ccc(-c2nc(C#N)c(NCC3CCCO3)o2)cc1 (configuration not stated),1.13
CN(CCC#N)S(=O)(=O)c1ccc2c(c1)c(=O)n(C)c(=O)n2C,-0.31
O=C(OCc1nc2ccccc2s1)c1ccc(Br)s1,-0.94
CC(=O)Nc1ccc2c(c1)CCC2=O,-0.65
CCCCOc1cccc(OCCCC)c1C(=O)Nc1cc(C)on1,-0.00989
Cc1cc(=O)oc2c(C)c(OCC(=O)N(C)C)ccc12,-0.13
CC(C)(C)c1ccc(-c2cc(N)n[nH]2)cc1,-0.21
Cn1c(=O)c2cc(NCc3ccccc3)nnc2n(C)c1=O,-0.73
Cc1ccc(S(=O)(=O)N2CCN(C(=O)CN3C(=O)NC4(CCOc5ccccc54)C3=O)CC2)cc1 (configuration not stated),0.08

# 17 successive compounds from above, for reference:
SMILES,WNV protease inh
COCCn1c(=O)[nH]c2cc(C(=O)N3CCN(c4ccccc4OC)CC3)ccc2c1=O,0.34
COc1ccc(NC(=O)CSc2ncn(-c3ccccc3)n2)cc1Cl,-0.04
c1nc(N2CCCCC2)c2[nH]cnc2n1,0.00493
COc1cc(C2NC(=O)NC(O)(C(F)(F)F)C2C(=O)c2cccs2)ccc1O (configuration not stated),-0.74
O=C(NCCCN1CCN(c2ccccc2)CC1)Nc1ccccc1C(F)(F)F,1.48
O=C(Oc1ccc(-c2nc(-c3ccccn3)no2)cc1)c1ccccc1,-0.34
CCOC(=O)Cn1c(=NC(=O)CSC(C)=O)sc2cc(OC)ccc21,-1.1
Cc1nn(-c2ccccc2)c(C)c1NC(=O)c1cccs1,0.04
COc1ccc(-c2nc(C#N)c(NCC3CCCO3)o2)cc1 (configuration not stated),1.13
CN(CCC#N)S(=O)(=O)c1ccc2c(c1)c(=O)n(C)c(=O)n2C,-0.31
O=C(OCc1nc2ccccc2s1)c1ccc(Br)s1,-0.94
CC(=O)Nc1ccc2c(c1)CCC2=O,-0.65
CCCCOc1cccc(OCCCC)c1C(=O)Nc1cc(C)on1,-0.00989
Cc1cc(=O)oc2c(C)c(OCC(=O)N(C)C)ccc12,-0.13
CC(C)(C)c1ccc(-c2cc(N)n[nH]2)cc1,-0.21
Cn1c(=O)c2cc(NCc3ccccc3)nnc2n(C)c1=O,-0.73
Cc1ccc(S(=O)(=O)N2CCN(C(=O)CN3C(=O)NC4(CCOc5ccccc54)C3=O)CC2)cc1 (configuration not stated),0.08

# A portion of the library; count on the stated rates, not on these rows.
